CBX7 inh: inhibitors of human CBX7 binding to H3K27me3 peptide; AlphaScreen His6-CBX7 / biotin-H3K27me3 peptide binding; hits give low values; normalised signal (fraction of DMSO) (test concentration not listed); hit rate 1.1% among 66,000; in the data active = normalised signal below about 0.5;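 also: 100 nL library stock added to about 20 µL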
Target sequence (O95931 whole entry, looked up): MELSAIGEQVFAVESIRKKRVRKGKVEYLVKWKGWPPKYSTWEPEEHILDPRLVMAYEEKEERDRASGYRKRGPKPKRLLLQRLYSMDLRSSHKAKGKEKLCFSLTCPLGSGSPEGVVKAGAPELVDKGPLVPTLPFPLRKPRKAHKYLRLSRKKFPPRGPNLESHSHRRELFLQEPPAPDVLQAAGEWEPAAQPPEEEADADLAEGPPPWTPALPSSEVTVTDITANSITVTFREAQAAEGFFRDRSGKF
CBX7 inh z-score: recorded beside CBX7 inh, whose call it bears; z-score; measured here: z-score of CBX7 signal; some inactives read as strong as hits; reference of the scale not given here;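 same signal on another scale; lower means less binding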
* marks the source's active call; other numbers are inactive results. The list is partial; count on the stated rates, not on these rows.

Screening COc1ccc(C)cc1-n1cnc2cc(C(=O)NCc3ccc(F)cc3)ccc21 returned CBX7 inh 1 and CBX7 inh z-score 0.13.
O=C(O)c1cccc(NCc2cccc(OCc3ccccc3)c2)c1 was read as CBX7 inh 0.86 and CBX7 inh z-score -2.5.
COc1cc2c(cc1OC)C(c1ccc(C(C)(C)C)cc1)NCC2 (stereo not drawn) was read as CBX7 inh 0.95 and CBX7 inh z-score -0.066.
`CCN(CC)Cc1c(C)[nH]c2ccc(C)cc2c1=O` gave CBX7 inh 1 and CBX7 inh z-score 0.76.
For CCC(C(=O)Nc1c(-c2ccccc2)nc2cc(C)ccn12)c1ccccc1 (stereo not drawn) the results were CBX7 inh 0.98 and CBX7 inh z-score -0.03.
Cc1ccc2c(c1)N(CCC(=O)NCc1ccccc1Cl)C(=O)CO2 was read as CBX7 inh 1 and CBX7 inh z-score 1.1.
`COc1ccc(C)cc1NS(=O)(=O)c1ccc2c(c1)CCN2C(=O)C1CC1` gave CBX7 inh 0.98 and CBX7 inh z-score -0.55.
Screening Cc1cc(C)cc(Nc2cc(C(=O)O)c3ccccc3n2)c1 returned CBX7 inh 1.1 and CBX7 inh z-score 1.4.
Screening CC1(C)CC(=O)c2cc(OCC(=O)NCCCN3CCCC3)ccc2O1 returned CBX7 inh 0.51 and CBX7 inh z-score -9.7.
CCOc1ccc(NC(=O)c2c(NC(=O)c3cccnc3)sc3c2CCC(C(C)(C)C)C3)cc1 (stereo not drawn) was read as CBX7 inh 0.82 and CBX7 inh z-score -2.3.
`O=C(CSc1nnc(-c2ccccc2)o1)N1CCc2ccccc21` gave CBX7 inh 0.97 and CBX7 inh z-score -0.068.
Screening CCC(=O)N1CCc2cc(S(=O)(=O)NCCc3ccccc3)ccc21 returned CBX7 inh 0.85 and CBX7 inh z-score -0.59.
CCC(C)NC(=O)CNc1ccccc1-c1nc2ccccc2[nH]c1=O (stereo not drawn) was read as CBX7 inh 0.97 and CBX7 inh z-score -0.43.
For COc1ccc(NC(=O)Cn2cc(S(=O)(=O)c3ccccc3)c(=O)c3cc4c(cc32)OCO4)cc1 the results were CBX7 inh 0.93 and CBX7 inh z-score -1.
`CCOc1ccccc1NC(=O)c1ccc2c(c1)C(=O)N(c1cccc(OC)c1)C2=O` gave CBX7 inh 1 and CBX7 inh z-score 0.063.
For O=C(c1ccc2c(c1)N(Cc1ccccc1)C(=O)c1ccccc1S2(=O)=O)N1CCCC1 the results were CBX7 inh 1.1 and CBX7 inh z-score 2.2.
For CC(=O)N1CCC(N(CCCOC(C)C)C(=O)Nc2ccc(Cl)c(Cl)c2)CC1 the results were CBX7 inh 0.99 and CBX7 inh z-score -0.013.
CCCCC(=O)NCCc1cc2ccc(C)cc2[nH]c1=O was read as CBX7 inh 1 and CBX7 inh z-score 2.1.
`O=C1CN(C(=O)CN2CCCCC2)c2ccccc2N1` gave CBX7 inh 0.57 and CBX7 inh z-score -0.89.
Cc1ccccc1Cn1cc(NC(=O)c2cc(C(C)C)on2)cn1 was read as CBX7 inh 1.1 and CBX7 inh z-score 1.5.
`Cc1nc(N2CCN(Cc3ccccc3)CC2)c2c(C)c(C)sc2n1` gave CBX7 inh 0.9 and CBX7 inh z-score -2.7.
Screening CCc1ccccc1NC(=O)c1c(-c2ccccc2)noc1C returned CBX7 inh 1.2 and CBX7 inh z-score 6.7.
For Cc1ccc(Nc2ncc(C(=O)Nc3cnc4ccccc4c3)c3ccccc23)cc1Cl the results were CBX7 inh 1.2 and CBX7 inh z-score 4.
CC(=O)N1CCc2cc(S(=O)(=O)NC(Cc3ccccc3)C(=O)Nc3ccc(C)c(C)c3)ccc21 (stereo not drawn) was read as CBX7 inh 1 and CBX7 inh z-score 0.13.
`COc1ccc2nc(N3CCC(C(=O)NCCCN4CCC(C)CC4)CC3)sc2c1` gave CBX7 inh 1.2 and CBX7 inh z-score 3.4.
Screening COc1ccc(-c2nc3cnccn3c2Nc2ccc3c(c2)OCO3)cc1 returned CBX7 inh 0.87 and CBX7 inh z-score -1.7.
CCCCN(C)C(=O)Cn1ncc2c1-c1cc(C)ccc1OC2 was read as CBX7 inh 1.1 and CBX7 inh z-score 1.8.
Screening CC1CCN(C(=O)c2c[nH]c3ccc(S(=O)(=O)N4CCOCC4)cc3c2=O)CC1 returned CBX7 inh 1 and CBX7 inh z-score 0.16.
COc1cc(OC)cc(C(=O)N2CCNc3ccccc3C2)c1 was read as CBX7 inh 1 and CBX7 inh z-score 0.32.
O=C(CN1C(=O)COc2ccc(S(=O)(=O)N3CCCCCC3)cc21)NC1CCCc2ccccc21 (stereo not drawn) was read as CBX7 inh 1 and CBX7 inh z-score 0.7.
Screening CCCN(CCC)CCCNC(=O)CNC(=O)c1cccs1 returned CBX7 inh 1 and CBX7 inh z-score 0.54.
`Cc1ccc(CCNC(=O)C2CCN(C(=O)c3sccc3-n3cccc3)CC2)cc1` gave CBX7 inh 0.98 and CBX7 inh z-score -0.75.
For Cc1ccc(CCNc2cc(C)nc3c(-c4ccc(Cl)cc4)c(C)nn23)cc1 the results were CBX7 inh 1.1 and CBX7 inh z-score 2.1.
Screening COc1cccc(C(=O)Nc2ccccc2-c2nc3ccccc3s2)c1 returned CBX7 inh 1.2 and CBX7 inh z-score 6.
Screening NC(=O)C1CCN(C(=O)C2CCN(C(=O)c3cc4sccc4n3Cc3ccc(F)cc3)CC2)CC1 returned CBX7 inh 1.1 and CBX7 inh z-score 2.2.
`COc1ccccc1NC(=O)CCn1nc(-c2ccc(C)cc2)c2ccccc2c1=O` gave CBX7 inh 0.96 and CBX7 inh z-score -1.2.
CCc1ccc(NC(=O)CCc2nc(-c3ccc(C)cc3)no2)cc1 was read as CBX7 inh 0.98 and CBX7 inh z-score -0.51.
Cc1ccc(CCNS(=O)(=O)c2cc(Br)cc3c2N(C(=O)C2CC2)CC3)cc1 was read as CBX7 inh 0.96 and CBX7 inh z-score -1.
For C=CCOc1ccc(C(=O)N(Cc2ccc(C(C)C)cc2)C2CCS(=O)(=O)C2)cc1 (stereo not drawn) the results were CBX7 inh 0.91 and CBX7 inh z-score -0.94.
COCCNc1ncnc2c1c(-c1ccccc1)cn2-c1cccc(Cl)c1 was read as CBX7 inh 1 and CBX7 inh z-score 0.23.
`CCn1cc(C(=O)NC2CCCCC2)c2cc(OC)c(OC)cc2c1=O` gave CBX7 inh 0.98 and CBX7 inh z-score -0.14.
CNc1nc2nonc2nc1Nc1ccc(Cl)cc1 was read as CBX7 inh 0.87 and CBX7 inh z-score -2.4.
For COc1ccccc1-c1cc2nc(C)c(CCC(=O)NCc3ccc(C)cc3)c(C)n2n1 the results were CBX7 inh 0.85 and CBX7 inh z-score -2.5.
For CCN(CC)c1ccc(C(=O)Nc2ccc3nc(N4CCN(c5ncccn5)CC4)cc(C)c3c2)cc1 the results were CBX7 inh 0.92 and CBX7 inh z-score -0.8.
Cc1ccc(N(CC(O)CN2CCOCC2)S(=O)(=O)c2ccc(C)cc2)cc1 (stereo not drawn) was read as CBX7 inh 1 and CBX7 inh z-score 0.28.
Screening CCOc1cccc(NC(=O)CSc2ncc(-c3ccccc3)[nH]2)c1 returned CBX7 inh 0.94 and CBX7 inh z-score -2.8.
For Cc1cc(C)n2nc(CC(=O)NCCC(C)C)nc2n1 the results were CBX7 inh 1.1 and CBX7 inh z-score 2.2.
For O=S(=O)(CCc1nc2ccccc2o1)c1ccc(Cl)c(Cl)c1 the results were CBX7 inh 1 and CBX7 inh z-score 0.14.
CCOC(=O)Nc1ccc2c(c1)Nc1ccccc1CC2 was read as CBX7 inh 0.67 and CBX7 inh z-score -7.
O=C(Cn1cc(S(=O)(=O)c2ccc(Cl)cc2)c(=O)c2ccccc21)Nc1ccc(F)cc1 was read as CBX7 inh 1.1 and CBX7 inh z-score 1.1.
Screening O=C(CCc1nc(-c2ccccc2F)no1)NCc1cccnc1 returned CBX7 inh 0.97 and CBX7 inh z-score -0.49.
O=C1c2ccccc2C(Nc2ccccc2Br)N1c1ccccn1 (stereo not drawn) was read as CBX7 inh 1 and CBX7 inh z-score 0.51.
For CCCNc1cc(C)nc2c(-c3ccccc3OC)c(C)nn12 the results were CBX7 inh 1.1 and CBX7 inh z-score 2.2.
Screening CCc1ccc2nc(Nc3nccc(C)n3)nc(C)c2c1 returned CBX7 inh 1 and CBX7 inh z-score 0.26.
For CCOC(=O)c1nnn(-c2nonc2N)c1CSc1cccc2cccnc12 the results were CBX7 inh 0.99 and CBX7 inh z-score -0.36.
`Cc1ccccc1NC(=O)c1cnc2sccn2c1=O` gave CBX7 inh 1 and CBX7 inh z-score -0.011.
For CC(=O)Nc1ccc(NC(=O)c2ccc3c(c2)C(=O)N(c2ccccc2C)C3=O)cc1 the results were CBX7 inh 1.1 and CBX7 inh z-score 0.055.
Screening O=C(NCc1ccc(Cl)cc1)c1nn2c(c1Br)NC(c1cccs1)CC2C(F)(F)F (stereo not drawn) returned CBX7 inh 0.92 and CBX7 inh z-score -0.68.
COc1ccccc1NC(=O)Cn1cnc2sc(C(=O)NCCC3=CCCCC3)c(C)c2c1=O was read as CBX7 inh 1 and CBX7 inh z-score 0.46.
COc1ccc(C(C(=O)NC2CCCCC2)N2CCc3ccccc32)cc1 (stereo not drawn) was read as CBX7 inh 0.93 and CBX7 inh z-score -1.9.
`COc1ccc(C2C(C(=O)Nc3ccc(F)cc3F)c3ccccc3C(=O)N2C)cc1OC` (stereo not drawn) gave CBX7 inh 1.2 and CBX7 inh z-score 1.6.
For Cc1oc(-c2ccccc2F)nc1CSCC(=O)O the results were CBX7 inh 1 and CBX7 inh z-score 1.6.
For COc1ccc(CNC(=O)c2cnn3c(C)c(Cc4ccc(Cl)cc4)c(C)nc23)cc1 the results were CBX7 inh 1 and CBX7 inh z-score 0.2.
Screening CCc1ccc2c(c1)c(=O)c(S(=O)(=O)c1ccc(Cl)cc1)cn2CC(=O)Nc1cccc(C)c1 returned CBX7 inh 0.86 and CBX7 inh z-score -2.2.
Screening CCc1ccc(NC(=O)c2cc(-c3cccc(O)c3)on2)cc1 returned CBX7 inh 1.1 and CBX7 inh z-score 1.7.
CCOC(CCNC(=O)Cc1c(C(=O)O)[nH]c2ccc(Cl)cc12)OCC was read as CBX7 inh 1 and CBX7 inh z-score 0.57.
For COc1ccccc1NC(=O)C1c2cc(OC)c(OC)cc2C(=O)N2CCc3ccccc3C12 (stereo not drawn) the results were CBX7 inh 1.1 and CBX7 inh z-score 1.
For Cc1ccc(OCC(O)Cn2c(CO)nc3ccccc32)cc1 (stereo not drawn) the results were CBX7 inh 1.2 and CBX7 inh z-score 0.44.
Screening CCn1cc(C(=O)N(C)c2ccc(OC)cc2OC)c2cc(OC)c(OC)cc2c1=O returned CBX7 inh 1.1 and CBX7 inh z-score 0.79.
Screening COc1ccc2c(c1)c(C(C)=O)c(C)n2-c1cccc(Br)c1 returned CBX7 inh 1 and CBX7 inh z-score 0.33.
Cn1c(C(=O)N2CCc3ccccc32)cc2sc(Cl)cc21 was read as CBX7 inh 1.1 and CBX7 inh z-score 2.2.
CCCCN(C)CCCNC(=O)c1ccc2c(c1)N=C(C)c1cc(Cl)ccc1S2 was read as CBX7 inh 1.4 and CBX7 inh z-score 5.4.
`CC(C)OCCCNC(=O)CN1C(=O)CCSc2ccccc21` gave CBX7 inh 1 and CBX7 inh z-score 1.2.

In the list so far, these contain a thiophene ring, fused or not.
CCOc1ccc(NC(=O)c2c(NC(=O)c3cccnc3)sc3c2CCC(C(C)(C)C)C3)cc1 (stereo not drawn) was read as CBX7 inh 0.82 and CBX7 inh z-score -2.3.
`Cc1nc(N2CCN(Cc3ccccc3)CC2)c2c(C)c(C)sc2n1` gave CBX7 inh 0.9 and CBX7 inh z-score -2.7.
Screening CCCN(CCC)CCCNC(=O)CNC(=O)c1cccs1 returned CBX7 inh 1 and CBX7 inh z-score 0.54.
`Cc1ccc(CCNC(=O)C2CCN(C(=O)c3sccc3-n3cccc3)CC2)cc1` gave CBX7 inh 0.98 and CBX7 inh z-score -0.75.
Screening NC(=O)C1CCN(C(=O)C2CCN(C(=O)c3cc4sccc4n3Cc3ccc(F)cc3)CC2)CC1 returned CBX7 inh 1.1 and CBX7 inh z-score 2.2.
Screening O=C(NCc1ccc(Cl)cc1)c1nn2c(c1Br)NC(c1cccs1)CC2C(F)(F)F (stereo not drawn) returned CBX7 inh 0.92 and CBX7 inh z-score -0.68.
COc1ccccc1NC(=O)Cn1cnc2sc(C(=O)NCCC3=CCCCC3)c(C)c2c1=O was read as CBX7 inh 1 and CBX7 inh z-score 0.46.
Cn1c(C(=O)N2CCc3ccccc32)cc2sc(Cl)cc21 was read as CBX7 inh 1.1 and CBX7 inh z-score 2.2.

Copied from the results shown (2 entries):
`COc1ccc(C2C(C(=O)Nc3ccc(F)cc3F)c3ccccc3C(=O)N2C)cc1OC` (stereo not drawn) gave CBX7 inh 1.2 and CBX7 inh z-score 1.6.
For Cc1oc(-c2ccccc2F)nc1CSCC(=O)O the results were CBX7 inh 1 and CBX7 inh z-score 1.6.

Screens as filed in PubChem BioAssay.
